# High-throughput results (PubChem)
# Calb biofilm kill: mixtures killing C. albicans biofilm | inhibition, % at 7.6 µM | C. albicans biofilm persisters + clotrimazole, fluorescence viability; primary screen in compound mixtures of four per well | actives 0.02% (n = 120,000);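 active means inhibition above 30.3% in the primary screen of four-compound pools, then above 30% when the compound was retested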;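 further: compounds exposed to preformed 24 h biofilms for 48 h; the number belongs to the whole pool; some results filed as inactive read as strong as hits; inactives centre near 12; 0% = biofilm with clotrimazole alone and 100% = kill control; retested singly at about 60 µM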
#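 System: C. albicans CAF4-2 wild-type biofilms; Medium: RPMI/MOPS medium, pH 7.0; Reagent: Clotrimazole, 50 µg/mL; Times: biofilm formation 24 h, compound exposure 48 h, 37 °C; Detection: 2-h Alamar Blue fluorescence, 535/590 nm excitation/emission; Evaluation: percent inhibition of biofilm viability.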
# Numbers without * were called inactive; & = joins results of further samples. These rows are one share of the data, so the mix of outcomes need not match the whole.
SMILES,Calb biofilm kill
O=Cc1ccc(-c2nc3ccccc3s2)o1,17.5
CC(C)C(O)(C#CCN1CCCCC1)C(C)C,12.9
O=C(COc1cccc2c1CCN(Cc1ccc(Br)cc1)C2=O)NCc1ccco1,10.4
CN(C)/C=N/C(=S)Nc1ccc(Cl)c(Cl)c1,18.3
Cc1ccc(-n2c(SCC(=O)Nc3cccc(C)c3)nc3c(oc4ccccc43)c2=O)cc1,4.5
O=C(N/N=C/c1cccc([N+](=O)[O-])c1)c1ccccc1-n1cccc1,10.2
Nc1nnn(CC(=O)N/N=C/c2cn[nH]c2-c2ccccc2)n1,19.1
COc1cc(NC(=S)Nc2ccc(OC(F)F)cc2)cc(OC)c1,15.0
Cc1ccc(S(=O)(=O)N2CCOCC2)cc1C(=O)NC(=S)N(Cc1ccccc1)C(C)C,15.3
Cc1c(Cl)cccc1N1CC(C)(C)C1=O,3.4
COc1ccc(S(=O)(=O)N2CCCCCC2)cc1NC(=O)Cc1cc(OC)c(OC)c(OC)c1,16.6
COc1ccc(N2CCN(C(=O)c3ccc(Br)cc3)CC2)c([N+](=O)[O-])c1,14.9
COc1ccccc1NC(=S)NC(NC(C)=O)C(Cl)(Cl)Cl (stereo unspecified),21.6
Cc1noc(C)c1COc1ccc(C(=O)OCC(=O)OC(C)(C)C)cc1,4.0
CCOC(=O)C(=O)N1CCN(c2cc3c(cc2[N+](=O)[O-])n(C)c(=O)n3C)CC1,20.1
COc1cc(-c2nnc(CSc3nnc(Nc4ccc(Oc5ccccc5)cc4)s3)o2)cc(OC)c1OC,14.5
O=C(Cc1cccc(C(F)(F)F)c1)Nc1ccccc1,16.4
CCC(C)NC(=O)CN1C(=O)NC2NC(=O)NC21 (stereo unspecified),18.8
N=C(N)Cc1ccccc1Sc1ccccc1,17.8
c1ccc(Cn2ncc3c(N4CCOCC4)ncnc32)cc1,14.5
COc1ccc(CN2C(=O)/C(=C/c3ccc(-c4ccc(Cl)c(C(=O)O)c4)o3)SC2=S)cc1,16.1
Cc1ccc(S(=O)(=O)Nc2ccc(NC(=O)c3cccnc3)cc2)cc1,13.5
O=[N+]([O-])c1cccnc1Sc1n[nH]c(-c2ccc(Cl)cc2)n1,5.8
O=C(NCc1ccccn1)/C(=C/c1ccco1)NC(=O)c1ccccc1,17.0
O=C(COC(=O)/C=C/c1ccc(Cl)cc1Cl)Nc1cc(C(F)(F)F)ccc1N1CCOCC1,2.6
C/C=C/C(=O)OCC(=O)Nc1ccc(OC)c(OC)c1,6.1
CN(/N=C/c1cccs1)c1cc(=O)n(C)c(=O)[nH]1,-4.7
CSc1ccc(C(=O)C2CCCN(C(=O)c3cccnc3SC)C2)cc1 (stereo unspecified),17.6
CC(=O)N1CCCC(C(=O)c2ccc(Oc3ccccc3)cc2)C1 (stereo unspecified),22.2
COc1cccc(NC(=O)CS(=O)(=O)c2cn(CC(=O)N3CCOCC3)c3ccccc23)c1,28.1
FC(F)(F)c1cccc(Cc2noc(CN(Cc3ccccn3)CC3CCCO3)n2)c1 (stereo unspecified),22.8
N#C/C(=C\c1ccc(OC(=O)c2ccccn2)cc1)C(N)=O,9.2
COc1ccc(CCN2C(=S)N(c3ccc(Cl)cc3)C(=O)C2CC(N)=O)cc1OC (stereo unspecified),11.0
O=C(CSc1nnc2ccccn12)NCc1ccc2c(c1)OCO2,11.3
NC(=O)CCC(NS(=O)(=O)c1ccc(Cl)cc1)C(=O)NCc1ccccc1Cl (stereo unspecified),0.8
Cc1cc(=O)[nH]c(N/N=C/c2c(C)nn(-c3ccccc3)c2Cl)n1,14.7
Cc1ccc(CNC(=O)c2ccccc2-n2cnnn2)cc1,14.0
CCOC(=O)N1N=C(C)CC1(O)c1ccc(Cl)cc1 (stereo unspecified),17.1
CC1(C)CC(NC(=O)C(=O)NCCc2ccccc2)CC(C)(C)N1,7.3
C=CCNC(=O)/C(=C/c1ccccc1OCC)NC(=O)c1ccccc1,15.2
COc1ccc(/C=C/C2=CC(C)(C)NC(=S)N2)cc1OC,14.1
COc1ccc(/C(O)=C2/C(=O)C(=O)N(CCN(C)C)C2c2cccnc2)cc1C (stereo unspecified),23.9
Cc1nc([N+](=O)[O-])cn1CC(=O)c1ccccc1,7.9
CCOc1ccc(N(C(C)C(=O)N/N=C(\C)C(C)(C)C)S(C)(=O)=O)cc1 (stereo unspecified),9.9
COc1ccc(/C=N\NC(=O)C2COc3ccccc3O2)cc1O (stereo unspecified),9.6

# 6 compounds picked at random from the list so far, as already listed:
SMILES,Calb biofilm kill
CCOC(=O)N1N=C(C)CC1(O)c1ccc(Cl)cc1 (stereo unspecified),17.1
FC(F)(F)c1cccc(Cc2noc(CN(Cc3ccccn3)CC3CCCO3)n2)c1 (stereo unspecified),22.8
Cc1cc(=O)[nH]c(N/N=C/c2c(C)nn(-c3ccccc3)c2Cl)n1,14.7
O=C(CSc1nnc2ccccn12)NCc1ccc2c(c1)OCO2,11.3
COc1ccc(/C=N\NC(=O)C2COc3ccccc3O2)cc1O (stereo unspecified),9.6
COc1ccc(/C(O)=C2/C(=O)C(=O)N(CCN(C)C)C2c2cccnc2)cc1C (stereo unspecified),23.9

# Next part
SMILES,Calb biofilm kill
O=C1CC(c2ccc(OCCCCCOc3ccc(C4CC(=O)NC4=O)cc3)cc2)C(=O)N1 (stereo unspecified),8.9
COCCCn1cc(C(=O)c2cc(OC)ccc2OCC(=O)N2CCCCC2C)cc(C#N)c1=O (stereo unspecified),4.7
COc1ccccc1CNC(=O)CCn1c(=O)sc2ccccc21,8.3
CC(C)(C)C(=O)Nc1ccc(F)cc1[N+](=O)[O-],14.6
O=C(N=Nc1c(O)[nH]c2ccc(Cl)cc12)c1cc(-c2cccs2)nc2ccccc12,16.5
Cc1nn(C)c(Cl)c1/C=C/C(=O)O,8.4
Cn1cnnc1SCC(=O)Nc1ncc(C(F)(F)F)cc1Cl,-1.4
CCn1c(N)[n+](CC(=O)Nc2ccc(SC(F)F)cc2)c2ccccc21,17.8
CN(C)CC(=O)Nc1ccc(Oc2ccc(Cl)cc2)cc1,15.0
O=C1NC2=C(C(=O)OC2)C(c2ccc(OC(F)(F)F)cc2)N1 (stereo unspecified),23.7
O=C(NC1CC1)C1=C[C@@H](c2ccc(Br)cc2)C[C@@H](OCc2ccc(CO)cc2)O1,16.9
Oc1ccc(NC(=S)Nc2ccccc2)cc1,12.4&3.1
Cc1ccc(CN(c2ccc(C(=O)NCC3CCCO3)cc2)S(C)(=O)=O)cc1 (stereo unspecified),6.3
CSc1ccccc1NC(=O)Nc1cccc(F)c1,10.2
Cc1cc(NC(=O)c2ccc(Cl)cc2Cl)n(CCC#N)n1,7.8
O=C(c1cccc(NS(=O)(=O)c2ccc(F)c(F)c2)c1)N1CCN(Cc2ccccc2)CC1,8.5
FC(F)Sc1ccc(-n2cc(-c3ccccc3)[n+]3c2CCC3)cc1,24.5
O=c1oc2ccccc2c(Nc2ccccc2O)c1[N+](=O)[O-],28.9
Oc1c(C(c2ccccc2Cl)N2CCCC2)ccc2cccnc12 (stereo unspecified),7.4
CC(=O)Oc1ccc(-c2csc(Nc3ccc(S(N)(=O)=O)cc3)n2)cc1,10.1
COc1ccc(OC)c(C2CC(c3ccccc3)=NN2C(=S)Nc2ccccc2)c1 (stereo unspecified),5.1
COc1ccc(CN2CC(=O)N(c3ccc(C)c(C)c3)C2=S)cc1OC,8.8
COc1ccc(C(=O)C2CCCN(Cc3cccn3-c3ccccn3)C2)cc1F (stereo unspecified),11.4
O=C(C1CC1)N1N=C2CCCCC2C1(O)C(F)(F)F (stereo unspecified),11.1
COc1ccc(NC(=O)CC2C(=O)N(Cc3cccs3)C(=S)N2C(C)C)cc1 (stereo unspecified),19.1
COc1c(S(=O)(=O)NCCCN2CCOCC2)ccc(Cl)c1Cl,15.4
CCC(C)OC(=O)C1=C(C)OC23OC(N)=C(C#N)C12C(=O)c1ccccc13 (stereo unspecified),7.2
COc1ccc(NC(=O)Nc2cccc(NC(C)=O)c2)c(OC)c1,13.2
COc1ccc(C(=O)NC(=S)Nc2ccc(CN3CCOCC3)cc2)cc1,13.8
CCOc1ccc(NC(=O)COc2ccccc2)c([N+](=O)[O-])c1,11.3

# 4 entries from above, tab-delimited:
Molecule	Calb biofilm kill
FC(F)Sc1ccc(-n2cc(-c3ccccc3)[n+]3c2CCC3)cc1	24.5
COc1c(S(=O)(=O)NCCCN2CCOCC2)ccc(Cl)c1Cl	15.4
COc1ccc(C(=O)C2CCCN(Cc3cccn3-c3ccccn3)C2)cc1F (stereo unspecified)	11.4
Oc1c(C(c2ccccc2Cl)N2CCCC2)ccc2cccnc12 (stereo unspecified)	7.4

# The results go on.
SMILES,Calb biofilm kill
O=C(Nc1cc(S(=O)(=O)N2CCCC2)ccc1OCC(F)(F)F)c1ccccc1F,12.8
O=C(COC(=O)c1sc2cc(F)ccc2c1Cl)Nc1ncc(Cl)cc1Cl,20.7
COCc1cc(OC)nc(-c2csc(C)n2)n1,16.0
Cc1cc(NC(=O)CN2CCC(C)CC2)no1,4.8
Oc1ccc(Nc2ccnc3cc(Cl)ccc23)cc1,21.7
COc1ccc(N=C2NC(=O)/C(=C/C=C/c3ccccc3)S2)cc1,18.4
Cc1ccccc1C(=O)NNC(=O)c1ccc(Br)cc1,16.9
O=C1c2cccnc2Oc2ccc(Cl)cc2N1Cc1ccc(F)cc1,10.3
CN(C)S(=O)(=O)c1ccc(C(=O)NCCSc2ccc(Br)cc2)cc1,4.8
NCCCC[C@H]1CNC(=O)C(=O)N1CCc1cc(C(F)(F)F)cc(C(F)(F)F)c1,7.2
CCOC(=O)C1=NN(c2ccccc2)C2C(=O)N(c3ccccc3OC)C(=O)C12 (stereo unspecified),18.6
CC(=O)NCCCCCCNC(C)=O,12.4
Nc1nc(F)nc2c1ncn2[C@@H]1O[C@H](CO)[C@@H](O)[C@@H]1O,15.2
Cc1ccc(NS(=O)(=O)c2cc(C(=O)N(C)C)ccc2C)cc1C,11.4
CC(C)(C)[C@@H]1C=C(C(N)=O)O[C@H](OCc2ccc(CO)cc2)C1,10.1
O=C(CCSCc1ccc(Cl)cc1)NCc1ccco1,20.1
O=C(Cc1ccc([N+](=O)[O-])cc1)N1CCc2ccccc2C1,16.4
O=C(CSc1nnc2ccccn12)NCCc1ccc(F)cc1,9.6
CCOC(=O)C1(C)NC(c2cccs2)C2C(=O)N(c3ccc(OC)cc3)C(=O)C21 (stereo unspecified),17.8
Cc1ccc(C(=O)COC(=O)c2ccc3c(c2)C(=O)N(c2cccc4ncccc24)C3=O)cc1,13.5
CC(=O)c1ccc2c3c(cccc13)C(=O)N(CCc1ccccc1)C2=O,30.0
S=C1NCCc2ccccc2C1c1ccccc1Cl (stereo unspecified),10.5
Cc1ccc(-n2c(SCC(=O)N3Cc4ccccc4CC3C(=O)O)nnc2-c2cccnc2)c(C)c1 (stereo unspecified),13.6
CCC(C)C(NC(=O)C(C)NC(=O)CNC(=O)OC(C)(C)C)C(N)=O (stereo unspecified),31.3
O=C(O)c1ccccc1C(=O)c1ccc(Oc2ccccc2)cc1,7.0
CCCCOc1ccc(/C=C/C(=O)Nc2ccc(C(N)=O)cc2)cc1,11.1
Cc1nonc1C(=O)N/N=C/c1ccc(O)c(O)c1,14.5
N#Cc1ncc(-c2ccc3c(c2)OCCOCCOCCOCCO3)nc1C#N,18.1
S=c1[nH]cc(-c2ccccc2)n1-c1ccccc1Cl,17.9
COC(=O)c1ccc(S(=O)(=O)NC(C)(C)C)n1C,18.0
CCC(C)(C)n1nnnc1C(c1ccc2ncccc2c1)N1CCN(c2ccc(O)cc2)CC1 (stereo unspecified),30.5
CCOc1cc(/C=N/NC(=O)CSc2nnc(C)s2)ccc1OCc1ccccc1Cl,3.5
Cc1[nH]c2ccccc2c1SCC(=O)NC1CCCCC1,20.3
COc1cccc(CN(C)CC(=O)Nc2cccc(S(N)(=O)=O)c2)c1OC,-6.5
CCSc1nnc(NC(=O)c2ccccc2C)s1,9.2
CC(=O)NNc1ncnc2c1cnn2-c1ccccc1,13.1
CC(C)(C)c1ccc(C(=O)C2CCCN(C(=O)CN3CCCC3=O)C2)cc1 (stereo unspecified),13.0
O=c1cc(Nc2ccc3c(c2)OCCO3)[nH]c(=O)n1C1CCCCC1,17.4
Cc1nc2ccc(NC(=O)c3cc([N+](=O)[O-])cc([N+](=O)[O-])c3Cl)cc2s1,12.9
CCOc1ccc(-c2cc3cc(OC)c(OC)cc3c(C)n2)cc1,14.5
OC(COCC(F)(F)C(F)(F)C(F)(F)C(F)F)Cn1c2ccccc2c2ccccc21 (stereo unspecified),8.8
O=C(CSc1nnc(NCc2ccccc2)s1)NC1CCS(=O)(=O)C1 (stereo unspecified),19.4
COc1cccc(/C(O)=C/C(=O)C(=O)Nc2ccc(S(=O)(=O)NC(C)=O)cc2)c1,4.3
CC1CCN(C(=O)c2cc3ccccc3c(=O)o2)CC1,11.1
COc1cccc(CN(C)Cc2nc(Cc3ccccc3Cl)no2)c1,20.8
CCN(CC)C(=O)N1CCc2ccccc21,12.3
O=C(COc1ccc2ccccc2c1)NNC(=O)c1ccc([N+](=O)[O-])cc1,25.5
CCC1=C(OC(=O)N(CC)CC)N2C(=O)OC(=NCC3CC3)[C@]2(C)[C@H]2C1=CC[C@H]1C(=O)N(C)C(=O)[C@H]12,14.7
COc1ccc(C(=O)Nc2sc(C)c(C)c2CN2CCOCC2)cc1,0.3
CCOCCCNc1nc2nc3ccc(C)cn3c(=O)c2cc1C(=O)NCC1CCCO1 (stereo unspecified),1.3
COc1ccc(C(=O)c2c[nH]cc2-c2ccccc2)cc1,17.8
CCOP(=O)(OCC)C(NC(=O)Nc1c(C)cc(C)cc1C)c1ccccc1 (stereo unspecified),6.8
Cc1n[nH]c(=S)n1-c1cccc(Cl)c1,3.9
Cc1ncc(CO)c(/C=N/NC(=O)c2cc(Br)ccc2O)c1O,14.7
O=C(NNc1nc(-c2ccccc2)c2cc(Br)ccc2n1)c1ccc(S(=O)(=O)N2CCOCC2)cc1,7.3
CN1/C(=C/C(=O)c2ccc(Cl)cc2)Sc2cc3c(cc21)OCO3,21.2
